# Screens from PubChem BioAssay.
# TAR Tat displ = HIV-1 TAR-Tat binding disruption. hit rate 0.6% among 100,000. HIV-1 TAR RNA, Tat peptide displacement FRET; hits give high values. z-score (concentration not given with the values);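 note: score is relative to mean and SD of negative controls; some compounds called inactive have numbers as strong as hits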
# CDC25B-CDK2 inh = human CDC25B-CDK2/CyclinA binding inhibition | z-score (test concentration not listed) | hit rate 0.72% among 94,000 | HTRF CDC25B-CDK2/CyclinA binding, anti-His/anti-Flag; hits give high values | P30305+P24941;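 note: score is relative to mean and SD of negative controls; strong numbers were not always called active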
# Active calls of the source: *; . = no result given.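 Rule for the calls: active = z-score from 3 up in half or more of its runs; inactive = the rest.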
structure	TAR Tat displ	CDC25B-CDK2 inh
CCc1ccc(C2CC(c3ccc(F)cc3)Nc3nc(N)nn32)cc1 (configuration not stated)	0.61	-0.84
COC(=O)Cc1c(C)nc(SCC(=O)Nc2ccccc2)[nH]c1=O	.	-0.9
CCOC(=O)C1CCN(S(=O)(=O)c2cc(Br)cc3c2N(C(=O)C2CC2)CC3)CC1	-0.07	-0.16
CN(C)CCCN(C(=O)c1ccco1)c1nc2c(Cl)cccc2s1	0.53	.
CN(C1CCCC1)S(=O)(=O)c1ccc(C(=O)Nc2sc3c(c2C(N)=O)CCC3)cc1	-0.59	.
CCOC(=O)c1c(-c2ccc(F)cc2)csc1N	.	-2.94
CC(C)c1ccc(S(=O)(=O)c2nnn3c2nc(N2CCN(C)CC2)c2sccc23)cc1	0.44	.
Nc1nnc(-c2cc(-c3ccc(O)cc3)on2)o1	1.16	-1.13
COc1ccc(Cc2nn3c(-c4ccccc4)nnc3s2)cc1	-1.53	1.37
Cc1cc2nc(COc3ccc(Cl)cc3C)cc(=O)n2o1	0.77	-1.7
O=C(O)c1c[nH]c2ccc(S(=O)(=O)NC3CCCCNC3=O)cc2c1=O (configuration not stated)	.	-0.94
COC(=O)Cn1cc(C(=O)c2ccccc2)c2ccccc21	1.59	0.85
Cc1ccc(Cl)cc1N1CCN(CC(O)c2ccc3c(c2)CCN3)CC1 (configuration not stated)	0.87	-1.88
CNC(=O)c1c(NC(=O)CCS(=O)(=O)c2ccccc2)sc2c1CCC2	0.61	.
CC1=NS(=O)(=O)c2cc(C(=O)NCc3ccco3)ccc2N1CC(C)C	0.7	.
CCC(C)NC1=C(C(=O)Nc2ccccc2)S(=O)(=O)c2ccccc21 (configuration not stated)	0.45	.
O=c1cc(-c2ccc(O)cc2)oc2cc(O)c([C@@H]3O[C@H](CO)[C@@H](O)[C@H](O)[C@H]3O)c(O)c12	1.15	.
COc1ccc(-c2onc(C)c2C)cc1S(=O)(=O)N(C)C(C)CCc1ccco1 (configuration not stated)	0.84	.
O=C(Nn1c(=S)[nH]c2ccccc2c1=O)c1cccnc1	.	-2.16
CCCCNc1nc(SC)nc(-c2ccccc2)c1C#N	1.45	-1.85

# Part of the list above, with two lines to a compound:
# Order of results: TAR Tat displ | CDC25B-CDK2 inh
> Cc1cc2nc(COc3ccc(Cl)cc3C)cc(=O)n2o1
 : 0.77 | -1.7
> O=C(O)c1c[nH]c2ccc(S(=O)(=O)NC3CCCCNC3=O)cc2c1=O (configuration not stated)
 : . | -0.94
> COC(=O)Cn1cc(C(=O)c2ccccc2)c2ccccc21
 : 1.59 | 0.85
> Cc1ccc(Cl)cc1N1CCN(CC(O)c2ccc3c(c2)CCN3)CC1 (configuration not stated)
 : 0.87 | -1.88
> CNC(=O)c1c(NC(=O)CCS(=O)(=O)c2ccccc2)sc2c1CCC2
 : 0.61 | .
> CC1=NS(=O)(=O)c2cc(C(=O)NCc3ccco3)ccc2N1CC(C)C
 : 0.7 | .

# The list goes on:
structure	TAR Tat displ	CDC25B-CDK2 inh
Cc1ccc2ncc(C(=O)Nc3ccc(Br)cc3C)c(=O)n2c1	0.31	-1.65
COCCNc1nc2c(S(=O)(=O)c3ccc(Br)cc3)nnn2c2ccsc12	-1.31	.
O=C(CC1(O)C(=O)Nc2ccc(Br)cc21)c1ccccc1F (configuration not stated)	1.74	.
CC(=O)N1CCc2cc(S(=O)(=O)CCC(=O)NCc3cccs3)ccc21	.	-0.68
CCCCCN[C@H]1CS(=O)(=O)C[C@@H]1S(=O)(=O)c1ccccc1	-0.83	-1.2
CCCn1cc(S(=O)(=O)c2ccccc2)c(=O)c2cc(F)c(N3CCC(C)CC3)cc21	-0.89	.
O=Nc1ccc2oc(=O)ccc2c1	.	-1.48
CCOCc1nc(N2CCCC2)sc1C(=O)O	-0.13	1.47
COc1ccc(Nc2ccc([N+](=O)[O-])c(Nc3ccc(OC)cc3)n2)cc1	.	-1.17
Cn1cc(S(=O)(=O)N2CCCC2)cc1C(=O)NCCC1=CCCCC1	1.91	.
CN(C)CCCN(C(=O)c1ccc2ncsc2c1)c1nc2c(F)cccc2s1	1.87	.
CC(C)(C)SCCSCCS(=O)(=O)CCSCCSC(C)(C)C	.	-1.95
N[C@@H](Cc1ccc(O)c(I)c1)C(=O)O	.	-0.08
CCOc1c(Br)cc(CNc2ccc3[nH]c(=O)[nH]c3c2)cc1OC	-3.62	8.47*
Cc1nn(CCCC(=O)NC2CC2)c(=O)c2cc3sccc3n12	0.43	-0.51
C=CCN1C(=O)/C(=C2\SC(=S)N(CCOC)C2=O)c2ccccc21	.	-0.47
Cn1c(=O)[nH]c(=O)c2c1nc(Br)n2CC(O)COc1ccccc1 (configuration not stated)	-1.08	-1.44
CC1=CC(c2ccc(Cl)cc2)n2nc(NC(=O)c3ccco3)nc2N1 (configuration not stated)	-0.2	-1.33
CCSc1nnc(NC(=O)C2Cc3ccc(C)cc3C(=O)O2)s1 (configuration not stated)	0.95	-1.47
CCc1ccc(C2CC(=O)Oc3c2c(=O)n(C)c2ccccc32)cc1 (configuration not stated)	0.86	-0.11
OCCN1CCN(CC(O)Cn2c3ccccc3c3ccccc32)CC1 (configuration not stated)	.	0.56
Cc1ccc(OCc2ccc(-c3nc(C#N)c(NCc4cccnc4)o3)o2)cc1	0.74	0.63
Cc1cc(-c2ccc(C)c(S(=O)(=O)NCCCc3ccccc3)c2)on1	-0.25	.
CCOC(=O)c1nc(N2CCN(c3ncccn3)CC2)c2c(C)noc2n1	-0.63	.
Cc1ccc(-c2cnc(C3CC3)o2)cc1S(=O)(=O)Nc1ccc(Cl)cc1	0.78	.
COc1cccc(C2CC(c3ccc(Br)cc3)=NN2C(=O)CCCC(=O)O)c1OC (configuration not stated)	0.97	-3
CC(C)CC(=O)Nc1c(C(=O)N2CCN(C)CC2)oc2ccccc12	0.7	-1.43
CC1CCC(NC(=O)CCS(=O)(=O)c2cccc3nonc23)CC1 (configuration not stated)	1.1	.
O=C(CCc1nnc2ccc(NCc3ccco3)nn12)NCc1ccco1	0.75	.
COc1ccc(S(=O)(=O)N(c2cccc(C)n2)S(=O)(=O)c2ccc(OC)cc2)cc1	1.84	-3.26
CCc1ccc(C2c3c(-c4ccccc4O)n[nH]c3C(=O)N2CCCO)cc1 (configuration not stated)	0.81	2.04
CC(C(=O)Nc1ccc2c(c1)OCCO2)S(=O)(=O)c1ccc2c(c1)S(=O)(=O)N=CN2 (configuration not stated)	2.5	.
Cc1ccc(S(=O)(=O)N2CCC(c3c[nH]c4ccccc34)(c3c[nH]c4ccccc34)CC2)cc1	1.21	-1.28
CS(=O)(=O)Nc1cccc(C2=NN(C(=O)c3ccco3)C(c3ccco3)C2)c1 (configuration not stated)	.	-2.3
CC(=O)NC1=NN(C(C)=O)C(c2ccc(Sc3ccc(C)cc3)o2)S1 (configuration not stated)	1.97	-0.44
CCS(=O)(=O)c1nc2ccccc2n1Cc1ccc(C(C)(C)C)cc1	1.19	0.24
COc1ccc2nc(NC(=O)Nc3cccs3)sc2c1	0.78	2.63
Cc1csc2nc(COc3ccc(C(C)(C)c4ccccc4)cc3)cc(=O)n12	-0.17	-0.78
COc1ccc(-c2noc(-c3ccc(Br)cc3)n2)cc1	-0.57	-0.14
Cc1nc(N2CCN(c3ccccn3)CC2)c2c(C)c(C(=O)Nc3c(F)cccc3F)sc2n1	0.65	.
COc1ccc(S(=O)(=O)N2CCN(c3ccc(C(F)(F)F)cc3[N+](=O)[O-])CC2)cc1OC	.	-1.63
CCC(=O)N1CCc2cc(S(=O)(=O)CCC(=O)N3CCCCC3CC)ccc21 (configuration not stated)	.	-1.8
CCCCN(CC)Cc1cn[nH]c1-c1ccc(C)c(C)c1	-0.22	-0.21
Cc1ccn2c(=O)c(NC(=O)c3ccccc3C)c(C)nc2c1	1.69	.
Cc1cccc(N2C(=O)CC(Sc3ccccc3C(=O)O)C2=O)c1C (configuration not stated)	-0.72	-2.51
CCOC(=O)c1c(C)oc2ncnc(NCCCN3CCOCC3)c12	-0.97	.
c1cncc(-c2nc3ccc(Oc4ccc5nc(-c6cccnc6)[nH]c5c4)cc3[nH]2)c1	-0.35	-0.86
COc1ccc(S(=O)(=O)[C@H]2CS(=O)(=O)C[C@@H]2NCc2ccncc2)cc1	1.22	-1.44
CC(=O)N1CCN(c2csc3ccc(F)cc3c2=O)CC1	0.24	.
Cc1ccc(C)c(C2CC(=O)Nc3c2cnn3-c2nc3ccccc3s2)c1 (configuration not stated)	3.33	.
Fc1ccc(Cn2c(C3CCCO3)nc3ccccc32)cc1 (configuration not stated)	1.88	-1.04
CC(C)c1ccc(C2/C(=C(/O)c3ccc(F)cc3)C(=O)C(=O)N2c2nncs2)cc1 (configuration not stated)	1.8	-0.99
Cc1cc(-c2ccc(S(=O)(=O)NCc3ccc(F)cc3)s2)n[nH]1	-0.28	.
CC1(C)CC(=O)C2=C(C1)Nc1cc3c(cc1C2c1ccc(Br)cc1)OCCO3 (configuration not stated)	.	-2.12
CCSCCOC(=O)C1=C(C)NC2=C(C(=O)CC(c3cccs3)C2)C1c1ccccc1Cl (configuration not stated)	0.1	-0.82
COC(=O)C1=C(C)NC2=C(C(=O)CCC2)C1c1ccc(Br)cc1 (configuration not stated)	0.31	-0.76
O=C1c2ccncc2C(=O)N1c1cc(F)ccc1F	-0.44	.
CCCCCCCOC(=O)C1=C(C)Nc2nc3ccccc3n2C1c1ccncc1 (configuration not stated)	-0.58	1.37
O=C(COc1ccccc1)Nc1ccc(C(=O)OC2CCCCC2)cc1	.	-2.77
O=C1CCc2cc(S(=O)(=O)N3CCC(C(=O)Nc4nccs4)CC3)ccc2N1	1.98	-1.9

# (list continues)
structure	TAR Tat displ	CDC25B-CDK2 inh
CC(C)Cn1cc(NC(=O)N(Cc2cccs2)C2CCCC2)c2ccccc2c1=O	1.12	.
Cc1ccc(-c2nc(CSCc3csc(C)c3C)c(C)o2)cc1	1.36	.
COc1cc(-c2cc(OC)c3c(C)oc(C)c3c(=O)c2)ccc1OC(=O)c1ccccc1Cl	-1.66	-1.72
CCCc1cc(C2CCCN2Cc2cc(Br)ccc2O)no1 (configuration not stated)	0.69	.
O=S(=O)(c1ccc(-c2cn3ccccc3n2)cc1)N1CCOCC1	-1.59	-0.72
Cc1c(-n2c(/C=C/c3c[nH]c4ccccc34)nc3ccccc3c2=O)c(=O)n(-c2ccccc2)n1C	1.23	-1.99
CC(C)C(NC(=O)Nc1ccc(Cl)cc1)c1nc2cccnc2n1C(C)C (configuration not stated)	0.69	.
Clc1ccc(-c2cc3nnc(-c4ccccc4)nc3s2)cc1	.	-1.57
NNC(=S)NCc1cccs1	.	0.75
CCc1cc2c(cc3n2CC(C)(C(=O)NC2CCCCC2)N(CCN2CCN(C)CC2)C3=O)s1 (configuration not stated)	0.51	-1.28
O=S(=O)(NCc1ccc2c(c1)OCO2)c1cccs1	-0.26	1.57
O=C(Cc1ccc(NC2=NC3CS(=O)(=O)CC3S2)cc1)NCc1ccc(Cl)cc1 (configuration not stated)	-0.05	1.03
O=S(=O)(c1ccc2nc(NCc3ccc(F)cc3)ccc2c1)N1CCCC1	0.82	.
COc1ccc(NS(=O)(=O)c2ccc(NS(=O)(=O)c3ccc4c(c3)OCCO4)cc2)cc1	.	0.02
COc1ccc(NC(=O)CSc2nccn2C2CCCC2)cc1OC	0.55	.
O=C(O)C1CCN(c2nccc3nc(NCc4ccc(F)cc4)ncc23)CC1	1.8	-0.15
O=C(NC1CCCC1)c1cc2n(n1)C(C(F)(F)F)CC(c1ccc(Br)cc1)N2 (configuration not stated)	0.46	-2.66
O=c1ccc(-c2ccc(Cl)cc2)nn1CCNS(=O)(=O)c1ccc(F)cc1	0.48	.
CSc1nsc(SC)c1NC(=O)N(C)C	.	-3.95
COc1ccc(OC)c(C(c2c(O)[nH]c(=S)[nH]c2=O)N2CCC(C)CC2)c1 (configuration not stated)	.	-1.91
O=C(CCC(=O)N1Cc2cccn2-c2ccccc21)NCc1cccs1	0.47	.
Cc1nn(-c2ccccc2)nc1C(=O)N1CCC(O)(c2ccc(Cl)cc2)CC1	.	-0.94
O=C(Nc1ccc(O)c(-c2nc3ccccc3s2)c1)c1cc2ccccc2oc1=O	.	-3.25
O=S(=O)(c1ccc(Cl)cc1)N1CCN(c2ccnc3cc(Cl)ccc23)CC1	.	1.11
COc1ccccc1NC(=O)N1CCn2c(nc3ccccc32)C1	0.99	-0.79
Cc1nnsc1-c1nnc(C2CCCCC2)o1	.	-1.15
CCOC(=O)N1CCN(c2c(NCCN3CCN(c4cccc(Cl)c4)CC3)c(=O)c2=O)CC1	-1.13	-2.84
CCOC(=O)CSc1nc(C)nc2c1CCC2	-0.61	-1.14
CCOC(=O)C1CCCCN1S(=O)(=O)c1ccc2c(c1)CC(C)N2C(=O)C1CCC1 (configuration not stated)	1.59	.
COc1ccc(Nc2nc(N3CC(C)OC(C)C3)nc3c2cnn3C)cc1 (configuration not stated)	1.28	.
N#CC1CCN(C(=O)C(=O)Nc2ccc3nc4n(c(=O)c3c2)CCCCC4)CC1	.	0.71

# Whole records, quoted from the list.
# CCOC(=O)C1CCCCN1S(=O)(=O)c1ccc2c(c1)CC(C)N2C(=O)C1CCC1 (configuration not stated) is listed with TAR Tat displ = 1.59; CDC25B-CDK2 inh = .
# O=S(=O)(c1ccc(Cl)cc1)N1CCN(c2ccnc3cc(Cl)ccc23)CC1 is listed with TAR Tat displ = .; CDC25B-CDK2 inh = 1.11
# Cc1nnsc1-c1nnc(C2CCCCC2)o1 is listed with TAR Tat displ = .; CDC25B-CDK2 inh = -1.15
